LANA-H2A inh = blockers of LANA interaction with H2A/H2B – biochemical, FP readout, HTS, primary screen | AID 2629, 2010 | inhibition, % (test concentration not listed) | cell-free LANA-H2A/H2B peptide, fluorescence polarization | 0.6% of 320,000 active; in the data active = inhibition mostly above about 10%, no sharp cut-off; inactive = mostly below about 6.7%;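 also: stock transfer was 7.5 nL into about 10 µL; 0% = median of vehicle wells and 100% = median of positive control wells; one replicate is shown; the record names a cut of 25% in any replicate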
HNF4A DNA FP = change in binding of human HNF4A to DNA, primary screen, biochemical, fluorescence polarization, FITC-DNA. 1 h. activity change, % at 10 µM. 0.3% of 360,000 active; in the data active = activity change above about 30%, passing the limit was not always enough;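 also: controls were the assay level and a saturating level of protein; the project sought stronger binding though the title names inhibitors; some compounds called inactive have numbers as strong as hits; positive values seem to mean higher polarization but the record does not say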
Target sequence (P41235 whole entry, looked up): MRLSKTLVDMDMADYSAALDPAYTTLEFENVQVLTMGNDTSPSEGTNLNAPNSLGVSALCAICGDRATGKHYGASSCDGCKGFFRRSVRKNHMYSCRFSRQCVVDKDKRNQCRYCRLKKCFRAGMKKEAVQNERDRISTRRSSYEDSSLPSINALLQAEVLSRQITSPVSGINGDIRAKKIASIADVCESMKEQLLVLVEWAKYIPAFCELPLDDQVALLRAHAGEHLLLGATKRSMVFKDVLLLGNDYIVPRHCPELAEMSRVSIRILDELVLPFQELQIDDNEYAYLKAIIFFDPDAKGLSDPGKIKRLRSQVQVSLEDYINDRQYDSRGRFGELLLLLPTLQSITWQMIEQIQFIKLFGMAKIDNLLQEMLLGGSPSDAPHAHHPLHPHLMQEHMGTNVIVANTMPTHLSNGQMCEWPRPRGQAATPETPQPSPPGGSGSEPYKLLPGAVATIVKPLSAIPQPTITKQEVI
Beta2AR agonist = beta2AR agonists driving receptor internalization, primary screen, cell-based, FAP fluorogen, flow cytometry; Beta-2 adrenergic receptor (Homo sapiens), P07550; Am2.2-beta2AR cells; reference of the scale not given here; response, % (test concentration not listed); 0.43% of 340,000 active;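 active = response above a set limit, near 3 SD of response in nonfluorescent compounds, cut at about 42% in these data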;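 also: stock transfer was 100 nL into about 11 µL; a reference agonist was the positive control; negative values mostly stem from fluorescent compounds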
Vif A3G = inhibitors of Vif binding to APOBEC3G peptide, primary screen, biochemical, TR-FRET, GST-Vif 1-94, biotin-A3G peptide, dose response retest (AID 1117319). inhibition, %, or IC50 in µM where a hit was titrated. Virion infectivity factor (Human immunodeficiency virus type 1 group M subtype B (isolate …. TR-FRET GST-Vif / biotin-A3G peptide binding; higher % means a stronger effect; test concentration not given here; strong numbers were not always called active. 0.57% of 260,000 active;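 active = above the screen mean plus three standard deviations and confirmed in dose response; inconclusive = results disagree or hit not tested in dose response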;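 also: Vif residues 1-94 fused to GST binding biotinylated APOBEC3G peptide 110-148; 0% = full assay without inhibitor and 100% = GST in place of GST-Vif; retest series ran down from 100 µM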
UCH37 inh = inhibitors of human UCH37 deubiquitinase, primary screen, biochemical, Ub-AMC cleavage, fluorescence | Ubiquitin carboxyl-terminal hydrolase isozyme L5 (Homo sapiens), Q9Y5K5 | purified proteasome/UCH37 | inhibition, % (no concentration beside the values) | 0.33% of 330,000 active | AID 588478, 2011;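 active = mean of two replicates above 20%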;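 also: 0% = compound-free wells with enzyme and 100% = wells lacking proteasome; stock transfer was 100 nL into about 20 µL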
Target sequence (Q9Y5K5 whole entry, looked up): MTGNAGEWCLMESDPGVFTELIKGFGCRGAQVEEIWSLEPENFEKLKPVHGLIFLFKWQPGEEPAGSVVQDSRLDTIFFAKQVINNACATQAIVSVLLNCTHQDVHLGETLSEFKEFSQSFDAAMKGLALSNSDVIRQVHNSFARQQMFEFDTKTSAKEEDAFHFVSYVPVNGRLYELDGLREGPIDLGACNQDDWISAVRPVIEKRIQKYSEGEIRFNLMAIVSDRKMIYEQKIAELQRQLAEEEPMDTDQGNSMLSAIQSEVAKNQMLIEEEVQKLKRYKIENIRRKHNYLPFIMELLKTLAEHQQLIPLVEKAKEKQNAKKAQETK
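Material: human UCH37 enzyme supplied as purified proteasome complex / Amount: 0.15 nM proteasome as dispensed / Buffer or medium: pH 7.4 Tris-HCl (50 mM) with ovalbumin, ATP-MgCl2, DTT / Times: preincubation 30 min, reaction 25 min, room temperature / Technique: AMC fluorescence from Ub-AMC cleavage, excitation 355 nm, emission 460 nm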
Ecoli growth = E. coli growth inhibition, primary screen, OD600. Escherichia coli growth, 23 h; hits give low values. OD600 absorbance (concentration not given with the values). 0.21% of 330,000 active;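 active = OD600 absorbance below the run mean of sample wells minus 3.6 SD, in any replicate, cut at about 0.56 in these data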;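 also: stock transfer was 300 nL into about 60 µL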
A1 inh = caspase 3/7 activation in MEF A1-2A-BIM cells, primary screen, A1 inhibitor project, cell-based, luminescence, HTS. Caspase-Glo 3/7 luminescence, 3 h; percent of clofoctol response, vehicle zero. caspase activation, % (concentration not given with the values). 0.066% of 330,000 active. AID 2462, 2010;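 active = over half of replicate activation scores above 10%, or exactly half above 10 with the replicate mean above 10; inconclusive = replicate mean below 10 yet half the replicates above 10; inactive = over half of replicates below 10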;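 also: wells of about 30 µL received 50 nL stock; many hits fall short of the cut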
An asterisk follows results filed as active; ? = inconclusive; nt = no result given. No enrichment for hits; overall some 2.1% were active at least once.

SMILES | LANA-H2A inh | HNF4A DNA FP | Beta2AR agonist | Vif A3G | UCH37 inh | Ecoli growth | A1 inh
N#Cc1c(N(CCO)CCO)nc(N)c2c(N)nc3c(c12)CC(=O)N3Cc1cccs1 | 0.7 | 7.8 | -1 | ? | -115 | 0.67 | -0.1
CS(=O)(=O)Cc1ccc(C(=O)N2CCN(C(=O)c3cccs3)CC2)cc1 | 4.4 | 2.7 | 2 | nt | 2.6 | 0.7 | -1.7
N/C(=N\OCc1ccc([N+](=O)[O-])cc1)c1ccncc1 | 5.1 | 1.1 | -4 | -1% | nt | nt | 0.4
Cc1c(C(=O)NCc2cccnc2)oc2c1C(=O)CC(C)(C)C2 | 1.5 | -1.7 | -7 | 0% | 1.7 | 0.75 | -0.3
COc1cc(NCCCCCCN)c2ncccc2c1OC | nt | 25 | 3 | 3.5µM* | 69* | 0.71 | nt
Cn1cc(C(=O)Nc2ccc(F)c(F)c2)cn1 | -3.7 | 3.2 | -10 | -5% | 0.5 | 0.77 | -1.4
Cc1ccc2c(c1)C(SCC(=O)NCCc1ccccc1)CC1(CCCC1)O2 (stereo not drawn) | 1.8 | 3.5 | -7 | -6% | -1.8 | 0.66 | 0.1
CCN1CCN(C(=O)c2cc3c(s2)-c2ccccc2S(=O)(=O)C3)CC1 | -1.1 | 0.9 | 4 | -4% | 5.3 | 0.71 | 0.2
CCOC(=O)COc1ccc2nsnc2c1 | -2.0 | 0.2 | 1 | ? | -20 | 0.67 | -1.6
Cc1ccn2c(=O)nc(SCC(=O)Nc3ccc4c(c3)OCO4)nc2c1 | -3.3 | 3.1 | 3 | 2% | 7.9 | 0.69 | 0.4
CC(C)(C)c1ccc(C(=O)NNc2ncccc2-n2cccc2)cc1 | 0.4 | -0.6 | -4 | nt | 2.8 | 0.67 | 0.2
CCn1cc([N+](=O)[O-])c(C(=O)N2N=C(c3ccccc3)CC2c2ccc([N+](=O)[O-])cc2)n1 (stereo not drawn) | -2.7 | -4.0 | -15 | 3% | 4.6 | 0.73 | 0.7
O=C(CNc1ccc(Cl)cc1)c1ccc(Br)cc1 | -0.5 | -1.0 | 2 | -1% | 6.0 | 0.73 | 0.8
Cn1c2c(c(=O)n(C)c1=O)CN(Cc1ccco1)CN2 | 7.6 | 2.5 | 3 | 22% | -0.9 | 0.76 | 0.5
O=C1c2ccccc2C(=O)N1CCCN1C(=O)c2ccccc2C1=O | nt | 1.6 | -7 | 0% | 4.6 | 0.71 | nt
COc1ccccc1C(=O)OCc1nc(N)nc(Nc2ccccc2C)n1 | -0.5 | 1.0 | -3 | 28% | 0.7 | 0.68 | 0.4
CNC(=O)CS(=O)CC(=O)Nc1cc(OCCOC)c(Cl)cc1Cl (stereo not drawn) | 1.2 | 0.2 | 2 | 17% | -1.6 | 0.68 | 0.8
Cn1nc(C(C)(C)C)c([N+](=O)[O-])c1C(=O)N1CCOCC1 | -5.9 | -0.5 | -4 | 4% | 1.7 | 0.72 | 1.1
O=C(Nc1ccc2oc(-c3ccccc3)nc2c1)c1cc(-n2cnnc2)ccc1Cl | -3.8 | 0.8 | -12 | -105% | -24 | 0.69 | 0.9
Cc1cccc(N(CC(=O)N2CCc3ccccc3C2)S(C)(=O)=O)c1C | 1.4 | 0.1 | 4 | nt | 4.3 | 0.72 | 1.1
CSc1ncccc1C(=O)OCC(=O)N(C)c1c(N)n(Cc2ccccc2)c(=O)[nH]c1=O | 1.4 | 1.1 | 5 | -7% | 2.7 | 0.66 | 0.2
O=C(Oc1oc(-c2ccco2)nc1C=Nc1ccc(Cl)cc1)c1ccco1 | 8.6 | -4.3 | 3 | 8% | 5.9 | 0.76 | -2.9
Cc1ccc(-c2cc(C(F)(F)F)nn2-c2ccc(S(N)(=O)=O)cc2)cc1 | 5.1 | 6.0 | -12 | nt | 4.4 | 0.62 | 2.0
CN1C(=S)N(c2ccccc2)C(=O)/C1=C/c1ccco1 | -1.1 | 0.8 | -11 | nt | 1.1 | 0.71 | -1.0
CC(NC(=O)COC(=O)CNC(=O)c1ccccc1Cl)C1CC2CCC1C2 (stereo not drawn) | -5.3 | 3.7 | 2 | nt | 1.4 | 0.71 | 1.6
C/C(=N/NC(=O)CNC(=O)c1ccccn1)c1cccc([N+](=O)[O-])c1 | 7.1 | -0.1 | -10 | ? | nt | nt | 0.1
CC1CCCC(NC(=O)Cn2cc(C(F)(F)F)cc(Cl)c2=O)C1C (stereo not drawn) | -5.5 | -4.7 | -5 | -1% | 2.4 | 0.68 | 1.2
N#C/C(=C\c1cn(-c2ccccc2)nc1-c1cc2ccccc2o1)c1nc2ccccc2[nH]1 | 2.1 | 74 | -6 | ? | -20 | nt | 0.7
CCOc1ccccc1N1CCN(C(=O)C2c3ccccc3Oc3ccccc32)CC1 | -12 | 1.0 | 6 | 4% | -2.8 | 0.73 | 0.2
C[C@@H]1CC[C@@]23COC(=O)C2=CCC[C@@H]3[C@@]1(C)CC/C(=C/CO)CO | 2.0 | 5.4 | -2 | nt | 4.9 | 0.77 | 0.4
COC(=O)c1cc(S(=O)(=O)Nc2ccsc2C(=O)OC)oc1C | -2.4 | -1.1 | 3 | -7% | 0.6 | 0.63 | -5.7
O=C(C[n+]1cccc(C(=O)N/N=C/c2cccc([N+](=O)[O-])c2)c1)c1ccccc1 | nt | 1.4 | -7 | -6% | nt | nt | nt
O=C(NCc1cccs1)C1CCN(S(=O)(=O)c2ccc(Cl)cc2)CC1 | 0.1 | -0.1 | 1 | 1% | 2.7 | 0.7 | 1.0
CC(C)c1ccc(NC2CCCN(C(=O)CCc3cn[nH]c3)C2)cc1 (stereo not drawn) | 7.2 | -0.4 | 7 | -2% | 0.7 | 0.72 | 0.3
COc1ccc(CC(=O)Nc2nc3ccc(F)cc3s2)cc1S(=O)(=O)N1CCOCC1 | 7.3 | 0.6 | -1 | 4% | -0.4 | nt | 0.1
CN=C(Nc1cccc(OC)c1)SC1CC(=O)N(c2ccc(C(=O)O)cc2)C1=O (stereo not drawn) | -5.1 | 0.4 | 2 | -1% | 5.8 | 0.65 | 1.2
COc1ccccc1C(=O)C1CCCN(C(=O)CN2CCCCC2=O)C1 (stereo not drawn) | -0.1 | -1.4 | -9 | -8% | -0.8 | 0.67 | 0.8
COC(=O)c1cn(NC(=O)Cn2nc([N+](=O)[O-])c(Br)c2C)c(=O)c2ccccc12 | 0.5 | -0.1 | 0 | 5% | 1.6 | 0.64 | 0.9
COc1cccc(/C=C/C(=O)OCC(=O)NCC2CCCCC2)c1OC | 2.6 | -0.4 | 27 | 8% | -29 | 0.68 | 0.5
Cc1cc(C)cc(OCC(=O)Nc2ccc(F)cc2)c1 | 1.1 | -5.2 | -4 | -5% | 4.6 | 0.71 | -1.0
COc1ccccc1NC(=S)N(Cc1ccco1)Cc1cc2cc(C)cc(C)c2[nH]c1=O | -4.8 | 2.6 | 6 | nt | -2.1 | 0.68 | -1.0
COC(=O)C1C(O)C(C)C(O)C(C)(O)/C=C\C=C(/C)C(=O)Nc2c(C)c(OC(C)=O)c3c(c2O)C(=O)C(C)=C2OCOC(=C23)/C(C)=C/C(C)(O)C(O)C(C)C1O (stereo not drawn) | 2.6 | 0.6 | 9 | 14µM* | nt | nt | -0.3
Cc1cc(C(C)(C)C)ccc1OC(=O)C1=CC=CN2CCS(=O)(=O)N=C12 | nt | 0.9 | -5 | -18% | -38 | 0.65 | nt
CCCn1c(=O)c(C(=O)NCc2ccccn2)c(O)c2ccccc21 | -2.7 | 2.3 | 1 | 7% | 0.3 | 0.7 | -0.6
CC(C)CC(=O)NS(=O)(=O)c1ccc(N)cc1 | 1.3 | 0.6 | -10 | 2% | 5.6 | 0.72 | 1.5
COc1ccc(N(C(C)C(=O)N(C)Cc2ccccc2)S(C)(=O)=O)cc1 (stereo not drawn) | 0.8 | -1.4 | 1 | nt | 2.3 | 0.66 | 1.0
COc1ccc2oc(C(=O)OCC(=O)Nc3ccccc3)c(C)c2c1 | -3.3 | -3.5 | 4 | nt | -43 | 0.66 | -0.5
COc1ccccc1CNC(=O)CN1C(=O)NC2(CCCCCCC2)C1=O | nt | 5.0 | -7 | -8% | -2.0 | 0.72 | nt

At a glance, some entries already given:
SMILES | LANA-H2A inh | HNF4A DNA FP | Beta2AR agonist | Vif A3G | UCH37 inh | Ecoli growth | A1 inh
COc1ccc2oc(C(=O)OCC(=O)Nc3ccccc3)c(C)c2c1 | -3.3 | -3.5 | 4 | nt | -43 | 0.66 | -0.5
COc1ccccc1CNC(=O)CN1C(=O)NC2(CCCCCCC2)C1=O | nt | 5.0 | -7 | -8% | -2.0 | 0.72 | nt

Three compounds out of the list above, sorted by the number in Vif A3G, rising.
structure,LANA-H2A inh,HNF4A DNA FP,Beta2AR agonist,Vif A3G,UCH37 inh,A1 inh
COc1ccccc1C(=O)C1CCCN(C(=O)CN2CCCCC2=O)C1 (stereo not drawn),-0.1,-1.4,-9,-8%,-0.8,0.8
Cc1cc(C)cc(OCC(=O)Nc2ccc(F)cc2)c1,1.1,-5.2,-4,-5%,4.6,-1.0
COc1cccc(/C=C/C(=O)OCC(=O)NCC2CCCCC2)c1OC,2.6,-0.4,27,8%,-29,0.5

(next part)
SMILES | LANA-H2A inh | HNF4A DNA FP | Beta2AR agonist | Vif A3G | UCH37 inh | Ecoli growth | A1 inh
O=C(CCSCCc1ccccn1)Nc1ccc(Br)cn1 | -4.7 | -0.5 | -11 | -4% | 0.3 | 0.63 | -0.3
O=C1NCCN1C(=O)C12CC3CC(CC(C3)C1)C2 | 5.6 | -0.1 | -3 | 25% | 1.7 | 0.68 | 0.8
Cc1cc(CNCc2c(C(=O)N3CCCCCCC3)nc3ccc(Cl)cn23)nn1C | 1.1 | -1.1 | -3 | -3% | 0.4 | 0.69 | 0.4
O=C(COc1ccccc1)NCCn1ccc2ccccc21 | -1.2 | 2.6 | -1 | -4% | 0.7 | 0.67 | 0.2
CC(C)CC(=O)NCCNC(=O)c1cc(OCC(F)(F)F)ccc1OCC(F)(F)F | -3.3 | -2.1 | -11 | 19% | 3.3 | 0.7 | -0.2
COc1ccc(C(=O)NCC(=O)N2CCN(C(=O)c3ccco3)CC2)cc1 | -2.1 | 1.1 | -2 | nt | nt | nt | -0.7
O=C(CSc1ccccc1)Nc1ccc2c(c1)OCCO2 | -3.3 | 3.0 | 3 | 11% | nt | nt | -0.3
COc1ccc(CCNC(=O)CNC(=O)c2ccccc2Br)cc1OC | 1.6 | -0.8 | -2 | nt | 1.2 | 0.67 | 0.7
CCOc1cc(N2CCOCC2)c(OCC)cc1NC(=O)c1cccc(S(=O)(=O)N2CCOCC2)c1 | -3.1 | -3.0 | 3 | -2% | 2.9 | 0.68 | 0.7
Cc1ccc(S(=O)(=O)N2CCOCC2)cc1C(=O)Nc1cc(S(=O)(=O)N2CCCCC2)ccc1O | nt | -1.7 | 2 | nt | 1.0 | 0.67 | nt
CNC[C@H](O)c1cccc(O)c1 | 5.9 | -2.7 | nt | 0% | 0.7 | nt | 0.7
CC(=O)Nc1ccc(C(=O)OCc2ccccc2Cl)cc1 | 1.5 | -5.5 | -1 | nt | 2.4 | 0.67 | 0.2
COc1ccnc(CSC(N)=Nc2cccc(C(F)(F)F)c2)c1 | 1.5 | -0.4 | 11 | 0% | 1.1 | 0.67 | -1.6
CCCCNC(=O)COC(=O)c1ccc(Cl)c(S(N)(=O)=O)c1 | 3.2 | 12 | 0 | 3% | -0.9 | nt | -0.5
COc1cc(/C=N/NC(=O)c2nonc2N)cc(OC)c1OC | 1.2 | 4.0 | -1 | 0% | nt | nt | 0.2
